Bead autofluor – compound fluorescence in toxin protease inhibitor counterscreen; AID 624483; 3.1% of 360,000 active; compound autofluorescence counterscreen, microsphere flow cytometry; hits give high values; fluorescence intensity (test concentration not listed);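 active = at least 3 SD above the mean of all compounds, about 16000 in these data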;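 also: 100 nL of 1 mM stock went into each well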
PrP UTR inh – suppresses PrP 5' UTR mRNA reporter expression. 0.35% of 340,000 active. cell-based PrP 5' UTR mRNA reporter, plate reader. inhibition, % (test concentration not listed). AID 488862;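 active = every replicate at 50% or more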;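 also: 0 = median of the neutral control wells; tested in H4 reporter cells; numbers are from one replicate; inactives centre near -14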
BJeLR viability – kills HRASV12-expressing BJeLR cells. BJeLR (HRASV12) viability, CellTiter-Glo ATP luminescence, 48 h; reference of the scale not given here. inhibition, % (concentration not given with the values). 0.17% of 300,000 active;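 active = replicate mean above 50%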;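 also: 50 nL library stock added to about 25 µL; numbers are from one replicate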
The depositor's hits bear a star; / = no result given. The list is partial; count on the stated rates, not on these rows.

SMILES	Bead autofluor	PrP UTR inh	BJeLR viability
COc1cccc(-c2c(C(=O)N/N=C/c3cccnc3)nnn2-c2nonc2N)c1	/	-25	1
O=P(O)(O)CP(=O)(O)O	/	-1	-1
C/C(=N\Nc1nc(C)cc(-c2ccccc2)n1)c1ccc(F)cc1	/	-3	-10
Cc1ccc(/C=N/NC(=O)NC23CC4CC(CC(C4)C2)C3)o1	/	-43	-2
NC(=O)COc1ccccc1	/	-1	-6
O=C1NC(=Nc2ccccc2Cl)S/C1=C\c1cccc([N+](=O)[O-])c1O	/	-15	4
CSc1ccc(/C=C2\C(=N)N3N=C(CC(=O)N4CCCCC4)SC3=NC2=O)cc1	/	-14	2
O=C(O)c1ccccc1/C=N/Nc1ccc(S(=O)(=O)N2CCOCC2)cc1[N+](=O)[O-]	/	-11	1
N/C(=N\N=C\c1ccc([N+](=O)[O-])cc1)c1nonc1N	/	-104	11
C/C(=N\NC(=O)c1cc(C)nc2ccccc12)c1ccncc1	/	3	6
CCOC(=O)N1c2ccccc2C=CC1OCC (centres undefined)	/	-27	4
CC(C)N(Cc1ccc(F)cc1)C(=O)c1cc2ccccc2oc1=O	/	-43	-6
Cn1c(=O)[nH]c(=O)c2c1nc(SCCC(=O)O)n2Cc1cccc(Br)c1	/	-7	-4
O=C1C=Cc2ccccc2C1=O	/	-22	-10
CCOc1ccc(-c2c(C(=O)N/N=C/c3cccc(Br)c3)nnn2-c2nonc2N)cc1	/	-16	2
O=C(N/N=C/c1ccc(OCc2ccccc2)cc1)c1ccco1	/	-55	2
COc1c(Br)cc(/C=N/n2c(-c3ccccc3)n[nH]c2=S)c(O)c1Br	/	-22	-4
CCCCCCn1c(=O)n2n(c1=O)[C@@H]1CN(S(=O)(=O)c3ccc(C)cc3)C[C@]1(O)[C@@H](OC(=O)NCc1ccccc1F)C2	3513	/	/
CSc1ccc(CN2CCC2(C)C(=O)Nc2cccc(Oc3ccccc3)c2)cc1 (centres undefined)	3888	/	/
CS(=O)(=O)c1ccc(Nc2nc(C(N)c3ccccc3)cs2)cc1 (centres undefined)	3979	/	/
O=C(N[C@H](CO)Cc1ccccc1)[C@H]1O[C@@H](n2ccc(=O)[nH]c2=O)[C@H](O)[C@@H]1O	4236	/	/
COC(=O)[C@]12CCCCC=C1N(Cc1cccc3ccccc13)C(=O)[C@H](CC(=O)NCc1cccc3ccccc13)C2	5634	/	/
COc1ccc(CN2C(=O)C(CC(=O)NCCc3ccccn3)CC(C(=O)N(C)C)=C2C)cc1 (centres undefined)	3407	/	/
CC1(C)C(=O)C=C(N2CCCCC2)c2ccccc21	3707	/	/
CC1=C(C(=O)N(C)C)CC(CC(=O)NCCCN(C)C)C(=O)N1CCCN1CCCC1=O (centres undefined)	5504	/	/
CCCNC(=O)C1(C)CCN(C(=O)c2c(Cl)cccc2Cl)C1 (centres undefined)	3827	/	/
OC(c1ccccc1)c1nc(-c2cccc(F)c2)cs1 (centres undefined)	3380	/	/
Cn1c(=O)c2cc(NC(=O)Nc3ccccc3)ccc2n1Cc1ccccc1	3718	/	/
COc1cccc(NC(=O)N(C)C[C@H]2Oc3cc(C#Cc4ccncc4)ccc3S(=O)(=O)N([C@H](C)CO)C[C@H]2C)c1	3073	/	/
CC1(Cc2cc(Cl)ccc2C(F)(F)F)C(=O)Nc2c(Cl)cccc21 (centres undefined)	3608	/	/
Fc1ccc(CNc2ccn3nc(-c4ccccc4)cc3n2)cc1	3910	/	/
CCOc1ccc2nc(NC(=O)c3cccc(N4C(=O)CCC4=O)c3)sc2c1	2744	/	/
CCNC(=O)C1CCCN(C(=O)c2cnc3ccccc3n2)CC1 (centres undefined)	3542	/	/
CC(=O)Nc1ccc(CN(C)c2c(C)nc3ccc(C(=O)NCCc4ccccn4)cn23)cc1	2776	/	/
COc1ccccc1-c1cc(NC(C)=O)c2ncc(-c3ccc(S(C)(=O)=O)cc3)n2c1	3385	/	/
COc1ccc(-c2cc(NC=O)c3ncc(-c4cccc(C(F)(F)F)c4)n3c2)cc1OC	4034	/	/
CC1(C(=O)NS(=O)(=O)c2ccc(Cl)cc2)CCN1C(=O)c1ccccc1 (centres undefined)	3855	/	/
CCCCN1CC(N2CCN(CCN(C)C)CC2)CS1(=O)=O (centres undefined)	6242	/	/
CCCCCCN1C[C@@H](n2cc(COC(=O)c3ccccc3)nn2)[C@H](O)C[C@@H]1c1ccccc1	3012	/	/
C#Cc1cccc(Nc2nc(NC(C)C)nc3ccsc23)c1	3856	/	/
CCN(CC(=O)Nc1c(F)cccc1F)C(=O)c1cccn1C	4092	/	/
CC(C)(C)CNC(=O)C1(C)CCN1C(=O)Cc1ccc(C(C)(C)C)cc1 (centres undefined)	2926	/	/
CCCCNC(=O)Cn1nnc(-c2ccccc2)c1COc1ccc(C(C)=O)cc1	4112	/	/
CCC(=O)N(C)C[C@@H]1Oc2ncc(Br)cc2C(=O)N([C@H](C)CO)C[C@H]1C	3936	/	/
O=C(Nc1nnc([C@H]2C[C@H](O)[C@@H](CO)O2)s1)Nc1ccccc1F	3800	/	/
O=C(CSc1ncn[nH]1)Nc1nc2c(F)c(F)c(F)cc2s1	3467	/	/
CCc1nc2ccc(C(=O)Nc3cc(-c4ccccc4)ccc3OC)cn2c1N(C)CCCc1ccccc1	3386	/	/
C[C@H](NC(=O)[C@@H]1CCCN1C(=O)[C@@H]1CCCN1C(=O)c1cccc2ccccc12)c1ccccc1	5176	/	/
CC(=O)Nc1cc(-c2cccc(F)c2)cn2c(-c3ccc(S(C)(=O)=O)cc3)cnc12	3560	/	/
CC(=O)Nc1cncc(-c2cccc(C(=O)NC3CC3)c2)n1	3865	/	/
CC1=C(C(=O)N(C)C)CC(CC(=O)NCCCN(C)C)C(=O)N1CCC1=CCCCC1 (centres undefined)	2861	/	/
CC1(C)CC(=O)C=C(c2ccc(-c3cnc4ccccc4c3)cc2)C1=O	3611	/	/
O=C1CNC(=O)c2cc(Cl)ccc2N1	3491	/	/
Cc1cccc(C)c1Nc1cn[nH]c1	5492	/	/
COc1ccc(-n2nnnc2C(c2ccccc2OC(F)(F)F)N2CCC(n3c(=O)[nH]c4ccccc43)CC2)cc1 (centres undefined)	4369	/	/
Cc1ccc(S(=O)(=O)n2cccc2/C=C/[N+](=O)[O-])cc1	2903	/	/
COc1ccc2c(c1)CCC(=O)[C@H](O)C[C@H](c1ccccc1)OC2=O	6112	/	/
CCCCCCN1C[C@@H](O)[C@H](n2cc(C3CC3)nn2)C[C@@H]1c1ccccc1	4884	/	/
COCCCn1cc(CN2CC(N3CCN(Cc4ccccc4F)CC3)CS2(=O)=O)nn1 (centres undefined)	5072	/	/
COc1ccc(OC)c(NC(=O)Nc2nc(CN)cs2)c1	3684	/	/
Next part
SMILES	Bead autofluor	PrP UTR inh	BJeLR viability
O=C(COC(=O)c1cncc(Br)c1)Nc1ccc(S(=O)(=O)N2CCOCC2)cc1	3219	/	/
COc1ccc(-n2nc3c(c2NC(=O)c2ccccc2)CS(=O)(=O)C3)cc1	2937	/	/
CC(CSC(=O)c1ccccc1)C(=O)N1c2ccccc2CC1C(=O)O (centres undefined)	6750	/	/
CC(C)NC(=O)C1(C)CCCN1C(=O)c1cc(C#N)cs1 (centres undefined)	2736	/	/
O=[N+]([O-])c1nccn1CCCCCCCCCCCN1CCOCC1	5701	/	/
Nc1ncnc(N)c1NC(=O)c1cc(Cl)c(OCc2ccccc2)c(Cl)c1	3920	/	/
CCOC(=O)C1=C(C)N=c2sc(=Cc3ccc(OCC(=O)O)cc3)c(=O)n2C1c1ccc(Cl)cc1 (centres undefined)	3891	/	/
CN1CCC(N2CCN(C3CN(C4CCCC4)S(=O)(=O)C3)CC2)CC1 (centres undefined)	5900	/	/
CCCCn1c(SCC(=O)NC2CC2)nc2cc(C(=O)OC)ccc2c1=O	3460	/	/
Cc1ccc(CC(C)(O)CC(C)(O)Cc2ccc(C)cc2)cc1 (centres undefined)	3100	/	/
CC1C(c2ccccc2)OCCN1C=NC#N (centres undefined)	3688	/	/
COc1ccc2[nH]c(=O)c(CN(C(C)=O)c3cc(C)ccc3C)cc2c1	3837	/	/

In the list so far, these contain a nitro group on carbon.
SMILES	Bead autofluor	PrP UTR inh	BJeLR viability
O=C1NC(=Nc2ccccc2Cl)S/C1=C\c1cccc([N+](=O)[O-])c1O	/	-15	4
O=C(O)c1ccccc1/C=N/Nc1ccc(S(=O)(=O)N2CCOCC2)cc1[N+](=O)[O-]	/	-11	1
N/C(=N\N=C\c1ccc([N+](=O)[O-])cc1)c1nonc1N	/	-104	11
Cc1ccc(S(=O)(=O)n2cccc2/C=C/[N+](=O)[O-])cc1	2903	/	/
O=[N+]([O-])c1nccn1CCCCCCCCCCCN1CCOCC1	5701	/	/

More entries follow.
SMILES	Bead autofluor	PrP UTR inh	BJeLR viability
O=C([C@@H]1CCCN1C1=NS(=O)(=O)c2ccccc21)N1CCN(c2ccccc2)CC1	3744	/	/
Cc1noc(C)c1-c1ccc(C(=O)NCCc2ccccc2)c2occc12	2969	/	/
COCC(=O)N1C[C@H]2CON(C)[C@H]2C[C@H]1c1cccc(-c2ccccc2)c1	3801	/	/
NC(=O)c1cccc(-c2coc3c(C(=O)NCCc4ccccc4)cccc23)c1	3416	/	/
CN1CCN(c2ncnc3c2ncn3[C@H]2CN(C)C[C@@H](CO)O2)CC1	3405	/	/
CSCCC(NC(=O)c1ccccc1Cl)C(=O)NCCOc1ccc(C)cc1 (centres undefined)	2784	/	/
CC1(C(=O)NCc2ccc(C(F)(F)F)cc2)CCN1Cc1c(F)cccc1F (centres undefined)	3616	/	/
Cc1cccc(S(=O)(=O)N(C)C[C@@H]2OCc3cnnn3CCCC(=O)N([C@H](C)CO)C[C@H]2C)c1	3022	/	/
CCCCn1nnnc1C(c1cc2ccccc2o1)N(Cc1ccccc1)Cc1ccccc1 (centres undefined)	6684	/	/
CCCNC(=O)c1cc(C2CCCCN2C(=O)c2ccccc2)on1 (centres undefined)	3474	/	/
CCc1ccc([C@@H]2C[C@H]3[C@@H](CN2S(=O)(=O)c2ccc(C)cc2)C(=O)C[C@@H](c2ccccc2)N3S(=O)(=O)c2ccc(C)cc2)cc1	2948	/	/
COc1ccc([C@H]2C[C@H](O)[C@@H](n3cc(C4CC4)nn3)CN2C(=O)C2CCCCC2)cc1	2820	/	/

Record cards, as listed above:
`CN1CCN(c2ncnc3c2ncn3[C@H]2CN(C)C[C@@H](CO)O2)CC1` in the list: Bead autofluor = 3405; PrP UTR inh = /; BJeLR viability = /
`CC1(C(=O)NCc2ccc(C(F)(F)F)cc2)CCN1Cc1c(F)cccc1F` (centres undefined) in the list: Bead autofluor = 3616; PrP UTR inh = /; BJeLR viability = /

Next section.
SMILES	Bead autofluor	PrP UTR inh	BJeLR viability
CC(C)(C)CC(=O)Nc1nc(C(N)Cc2ccc(C(F)(F)F)cc2)cs1 (centres undefined)	2949	/	/
O=P(OC1=CCCCC1)(c1ccccc1)c1ccccc1	4208	/	/
COc1cc2ccccc2cc1C(=O)N/N=C/c1cccs1	2854	/	/
Cc1nnc(SC(C)C(=O)c2c[nH]c3ccccc23)n1C1CC1 (centres undefined)	4076	/	/
CC(C)C#Cc1ccc2c(c1)O[C@@H](CN(C)S(=O)(=O)c1cn(C)cn1)[C@@H](C)CN([C@H](C)CO)S2(=O)=O	3342	/	/
CCc1ccc(C(O)c2ncc(-c3ccc(C)cc3)[nH]2)cc1 (centres undefined)	3753	/	/
CCCCn1nnnc1C(c1cc2ccccc2o1)N1CCN(CCN(C)C)CC1 (centres undefined)	7331	/	/
CN(C)C(=O)c1cccc(-c2cccc(-c3nc(C(=O)NCc4ccccc4)cc4c3[C@H](CCO)N(S(=O)C(C)(C)C)C4)c2)c1 (some centres undefined)	6070	/	/
CCCCn1c(NCc2cc(C)ccc2O)nc2ccccc21	2941	/	/
O=C(NCc1ccccc1)[C@@H]1CCCN1C(=O)[C@@H]1CCCN1C(=O)c1cccs1	6137	/	/
O=C(NC(c1ccc(Cl)cc1)c1ccccn1)C1CCN(CCOc2ccc(Cl)cc2Cl)CC1 (centres undefined)	4344	/	/
Cc1cc(C)c(C(=O)c2ccccc2C(=O)O)c(C)c1	6185	/	/
COc1cc(/C=C2/SC(=S)N(CC(=O)NNC(=O)c3ccc(F)cc3)C2=O)cc(OC)c1OC	3498	/	/
COc1ccc(/C=N/NC(=O)c2nnn(-c3nonc3N)c2C)cc1OC	3570	/	/
COc1ccccc1CN1CC(C(=O)N(C)CCc2ccccn2)CCC1=O (centres undefined)	3555	/	/
CSc1ncccc1C(=O)OCC(=O)c1ccc(Cl)s1	3712	/	/
COc1cccc(-c2cnc3c(NC(C)=O)cc(-c4ccccc4OC)cn23)c1	3668	/	/
O=C(Nc1nnc([C@@H]2C[C@H](O)[C@@H](CO)O2)s1)Nc1ccccc1C(F)(F)F	3736	/	/
COc1ccc(-c2nc3ccc(Cl)cn3c2Cc2ccccc2C(F)(F)F)cc1OC	4813	/	/
COc1ccccc1N1CCN(C(=O)c2ccc3noc(-c4ccccc4)c3c2)CC1	3885	/	/
O=C(OC1CC2CC1[C@H]1CCCCN1C2=O)N1CCC(c2ccccc2)CC1 (some centres undefined)	4300	/	/
CC(=O)Nc1ccc(CN(C)c2c(C)nc3ccc(C(=O)Nc4ccc(Cl)c(Cl)c4)cn23)cc1	3489	/	/
C[C@@H]1CN([C@H](C)CO)C(=O)CCCn2nncc2CO[C@@H]1CN(C)S(=O)(=O)c1ccc2ccccc2c1	3774	/	/
Cc1ccccc1C(=O)N(C)[C@H]1C[C@H]2c3[nH]c4ccccc4c3CCN2C(=O)[C@H]1[C@H](C)O	3522	/	/
